# Sa growth 42C – S. aureus growth inhibition. relative growth, % (no concentration beside the values). S. aureus RN4220 growth, OD600, 20 h, 42 °C; hits give low values. 170,000 compounds, 0.53% hits. AID 720641;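 active = growth at 42 °C up to 50% and 20 or more points under that at 30 °C, or under 10% at both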;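 note: 300 nL library stock went into each well; scaled to the means of positive and negative controls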
# HCMV NEC inh – disrupts HCMV UL50-UL53 complex binding; HTRF UL50-UL53 interaction, normalized percent inhibition; inhibition, % (test concentration not listed); 190,000 compounds, 0.15% hits; AID 1918969;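 active = both replicates at 50% or more, plus weaker picks with an unusually low signal ratio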;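 note: stock transfer was 100 nL into about 20 µL; 0% = negative control wells and 100% = wells with untagged competitor protein; inactives centre near -12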
# GIV-Gai inh – inhibitors of GIV GBA-motif binding to rat Galpha-i3; P08753; Galpha-i3/FITC-GIV peptide fluorescence polarization, 90 min; hits give low values; scaled: aluminum fluoride 0%, vehicle 100%; percent of control (FP), % (test concentration not listed); 210,000 compounds, 0.42% hits;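 active = replicate mean at 85% of control or lower, very high polarization wells dropped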;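 note: wells of about 15 µL received 100 nL stock; the first replicate is given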
# Target sequence (P08753 whole entry, looked up): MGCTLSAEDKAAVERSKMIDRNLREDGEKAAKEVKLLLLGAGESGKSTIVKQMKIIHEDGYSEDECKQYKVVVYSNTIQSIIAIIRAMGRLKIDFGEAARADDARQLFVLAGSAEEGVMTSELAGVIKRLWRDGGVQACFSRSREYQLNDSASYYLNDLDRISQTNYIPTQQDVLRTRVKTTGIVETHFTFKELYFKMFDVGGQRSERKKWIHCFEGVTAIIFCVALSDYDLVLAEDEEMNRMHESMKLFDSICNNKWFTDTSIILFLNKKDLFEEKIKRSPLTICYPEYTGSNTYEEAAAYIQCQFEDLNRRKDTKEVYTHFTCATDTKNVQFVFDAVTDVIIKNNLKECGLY
# Sa growth 42C second temp – further read-out of Sa growth 42C, marked with its call; relative growth, %; measured here: growth at 30 °C;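 optical density after 20 h as mean of two plates; 100% = untreated growth and lower means inhibition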
# Starred values were filed as active, the others as inactive; x = no result given; & = joins results of further samples. This is a random part of the collection. Share with any hit: about 0.8%.
SMILES	Sa growth 42C	Sa growth 42C second temp	HCMV NEC inh	GIV-Gai inh
S=c1[nH]c2ccc(Cl)cc2o1	37	16	-14	x
CCC(C(=O)Nc1ccccc1O)c1ccccc1 (stereo unspecified)	123	99	4	109
COc1ccc(NC(=O)CSC2=C(C#N)C(c3ccccc3C)C3=C(CCCC3=O)N2)cc1 (stereo unspecified)	79	83	-32	98
O=C1Nc2ccccc2/C1=N\N1CCN(Cc2cccc3ccccc23)CC1	102	70	-22	98
O=C(O)CCC(=O)Nc1ccccc1N1CCCCC1	97	92	9	99
Cc1cc(C)n(CC(=O)NCc2ccc3c(c2)OCO3)c(=O)c1S(=O)(=O)c1ccc(Cl)cc1	x	x	-9	101
O=S1(=O)C[C@H](NC2CCCCCC2)[C@@H](S(=O)(=O)c2ccc(Cl)cc2)C1	x	x	-10	100
CCOC(=O)Cn1cc(/C=C2\C(=O)NC(=S)N(c3cccc(Cl)c3Cl)C2=O)c2ccccc21	x	x	-6	86

# Later entries.
SMILES	Sa growth 42C	Sa growth 42C second temp	HCMV NEC inh	GIV-Gai inh
O=C(O)c1c(CNCCc2ccc(Cl)cc2)c2ccccc2n1Cc1ccccc1	109	94	x	117
CCCCSc1nnc(CSc2ncccn2)n1CCc1ccccc1	90	78	-27	100
COc1ccc(Cl)cc1CNCCSc1nnnn1-c1ccccc1	95	73	-29	105
CC(=O)c1c(C)oc2ccc(N(C(=O)Oc3ccccc3)S(=O)(=O)c3ccc(Br)cc3)cc12	97	108	-3	109
CCNc1nc(N2CCC(N3CCCCC3)CC2)nc2c1cnn2C	x	x	-17	102
COC(=O)Nc1nnc(COc2cccc(C)c2)s1	98	101	3	107
Cc1ccc(C(=O)NCCn2c(C)cc3ccccc32)cc1C	120	110	6	102
CC(C)N1CCn2c(nc3cc(NC(=O)Nc4ccccc4)ccc32)C1	x	x	-32	100

# Remaining list, next part
SMILES	Sa growth 42C	Sa growth 42C second temp	HCMV NEC inh	GIV-Gai inh
Cc1nnc2c3ccccc3nc(Nc3ccccc3C(=O)O)n12	99	78	-17	110
COc1cc(NC(=O)c2cc(-c3ccc(Cl)c(Cl)c3)on2)cc(OC)c1OC	98	102	4	105
Cc1c(C(=O)N2CCCCC2)sc2nc(C(F)(F)F)nn12	108	75	-2	99
COc1ccc(Nc2ccccc2Cl)cc1	82	80	-26	x
Cc1ccc(Sc2c(C(=O)NCc3ccccc3C)[nH]c3ccccc23)cc1	112	92	-12	97
Cc1cc(OCCCC(=O)O)cc(C)c1Cl	110	102	4	107
CN1CCN(CCCNC(=O)c2ccc3c(Cl)c4c(nc3c2)CCCC4)CC1	99	90	-20	106
CCC(c1ccccc1)c1nc(-c2ccncc2)no1 (stereo unspecified)	82	69	-16	100

# (more compounds)
SMILES	Sa growth 42C	Sa growth 42C second temp	HCMV NEC inh	GIV-Gai inh
CN1C(=O)NC(=O)/C(=C\C=C\c2ccccc2)C1=O	110	98	-3	105
O=C(c1cc2ccccc2oc1=O)N(Cc1ccc2c(c1)OCO2)CC1CCCO1 (stereo unspecified)	106	108	-12	100
COc1cccc(CNC(=O)Cn2ncc3c4ccccc4n(Cc4ccccc4F)c3c2=O)c1	95	86	3	99
COc1cc(C(=O)N2CCN(c3ccc(NCc4ccccc4)nn3)CC2)cc(OC)c1OC	112	87	-40	104
C=C(C)CN(CC)C(=O)Cn1c(NCc2ccccc2)nc2ccccc21	80	96	-11	x
CCc1ccn2cc(-c3ccc(F)cc3)nc2c1	114	70	4	107
CCC1=C(c2ccc(C)cc2)S(=O)(=O)NC1=NCC(=O)NC1CC1	89	88	-53	108
Nc1nc2ccccc2n1C(=O)c1ccco1	100	91	x	97

# Continuation:
SMILES	Sa growth 42C	Sa growth 42C second temp	HCMV NEC inh	GIV-Gai inh
CN(CC(=O)NCC1CCCCC1)S(=O)(=O)c1ccc(F)cc1	114	82	-6	x
CCOc1ccc2c(c1)cc(C(=O)NCC(C)C)n2C	x	x	0	96
Cc1ccc(CN2C(=O)c3oc4ccccc4c3OCC2(C)C(=O)NC2CCCC2)cc1 (stereo unspecified)	x	x	-11	103
COc1ccc(CCN2C(=O)CSC2=S)cc1OC	109	104	8	111
Cc1cc(C)n(C(C)CC(=O)NCc2ccc(N(C)C)cc2)n1 (stereo unspecified)	93	91	x	96
CCCCN(C)CCNC(=O)c1nn(-c2ccc(OC)cc2)c(=O)c2c1c1ccccc1n2C	100	88	-64	103
COc1cc(OC)c(C(=O)OCC(=O)c2c[nH]c3ccccc23)cc1OC	77	79	-15	x
O=c1c(Cl)c(Cl)cnn1CN1CCN(Cc2ccc3c(c2)OCO3)CC1	107	92	-33	x

# Additional records follow:
SMILES	Sa growth 42C	Sa growth 42C second temp	HCMV NEC inh	GIV-Gai inh
Nc1nnc2c(n1)-c1ccccc1C2=O	81	47	-110	100
Cc1cccc(N(C)C(=O)C2CCCN2S(=O)(=O)c2cccc3nsnc23)c1 (stereo unspecified)	90	89	-26	105
Cc1ccc(C(=O)N[C@@H](C)c2nc3ccccc3[nH]2)cc1	72	82	-29	x
CCOC(=O)c1ccc2oc(=O)n(C)c2c1	x	x	-27	106
CCC(CO)Nc1ncnc2c1cnn2-c1ccc(Cl)cc1 (stereo unspecified)	109	78	-22	x
CN(C)c1ccc(-c2nnc(-c3ccc(S(=O)(=O)C(F)F)cc3)o2)cc1	85	110	-1	95
N#CC(NC(=O)c1ccccc1Cl)c1ccc(Cl)cc1 (stereo unspecified)	103	91	4	x
C=CCOc1ccc(CN(C)Cc2cccc(S(=O)(=O)N(C)C)c2)cc1	101	94	-14	x

# (further entries)
SMILES	Sa growth 42C	Sa growth 42C second temp	HCMV NEC inh	GIV-Gai inh
CC(C)CCNCC(O)Cn1c2ccc(Br)cc2c2cc(Br)ccc21 (stereo unspecified)	x	x	-4	115&99
O=C(C(Cc1ccccc1)N1Cc2ccccc2C1=O)N1CCNCC1 (stereo unspecified)	80	83	-26	110
CCN(C(=O)Cn1c(C(=O)OC)cc2oc3ccccc3c21)c1cccc(C)c1	96	87	-9	101
Cc1nc(-c2c[nH]c(C(=O)O)c2)cs1	71	75	-44	x
O=C(Nn1c(-c2cccs2)nc2ccccc2c1=O)c1cc([N+](=O)[O-])cc([N+](=O)[O-])c1Cl	x	x	-102	108
CC(C)(C)c1csc(NC(=O)CSC2=NCCS2)n1	88	85	4	103
OC(c1ccccc1)C(O)(c1ccccc1)c1ccccc1 (stereo unspecified)	77	85	-13	x
CCOc1ccc(C(=O)NCc2ccc3c(c2)CCN3C(=O)c2ccccc2)cc1	123	84	x	102

# Gathered by group: the compounds so far with fluorine
SMILES	Sa growth 42C	Sa growth 42C second temp	HCMV NEC inh	GIV-Gai inh
Cc1c(C(=O)N2CCCCC2)sc2nc(C(F)(F)F)nn12	108	75	-2	99
COc1cccc(CNC(=O)Cn2ncc3c4ccccc4n(Cc4ccccc4F)c3c2=O)c1	95	86	3	99
CCc1ccn2cc(-c3ccc(F)cc3)nc2c1	114	70	4	107
CN(CC(=O)NCC1CCCCC1)S(=O)(=O)c1ccc(F)cc1	114	82	-6	x
CN(C)c1ccc(-c2nnc(-c3ccc(S(=O)(=O)C(F)F)cc3)o2)cc1	85	110	-1	95

# Later entries:
SMILES	Sa growth 42C	Sa growth 42C second temp	HCMV NEC inh	GIV-Gai inh
Cc1cccn2c(=O)c(C=C(C#N)C#N)c(N3CCCC3)nc12	101	95	-1	x
O=C(c1ncn[nH]1)N(Cc1cc2ccccc2[nH]c1=O)c1ccccc1	99	87	0	106
CCOC(=O)c1c(NC(=O)NCc2ccccc2)sc2c1CCC2	103	100	x	105
COc1ccc(C(=O)Nc2cccc(-c3nc4ccccc4s3)c2)cc1	81	83	-16	x
N#Cc1ccc(Sc2nc3ccccc3[nH]2)cc1C#N	102	78	-10	101
CCCn1c(CCC(=O)NCCc2ccc(OC)cc2OC)nc2cccnc21	103	94	0	109
CC(C)c1cnc2c(c1SCC(=O)O)c(=O)n(C)c(=O)n2C	77	88	x	102&104
CC(CCc1ccccc1)NCc1c(C(=O)O)[nH]c2ccccc12 (stereo unspecified)	94	85	x	99

# (cont.)
SMILES	Sa growth 42C	Sa growth 42C second temp	HCMV NEC inh	GIV-Gai inh
Cc1nnc(-c2cc(S(=O)(=O)N3CCOCC3)c[nH]2)o1	x	x	-28	101
CCOCCCNCc1ccc(-c2ccccc2)o1	x	x	-9	106
CCc1ccc(NC(=O)C(CC)Sc2nc3ccsc3c(=O)n2C2CC2)cc1 (stereo unspecified)	104	88	x	101
CCOc1cccc(NC(=O)CC#N)c1	97	79	-2	x
O=C(O)c1cnn(-c2ccc(Cl)cc2)c1C1CCNCC1	86	84	-22	104
COC(=O)C(=NNc1ccc(SC(F)(F)F)cc1)C(=O)OC	94	98	-34	x
O=C(CN1CCC(n2cnc3cc(F)ccc32)CC1)NCc1ccc(F)cc1	116	91	-16	101
NS(=O)(=O)c1ccc(-c2ccc(/C=N/NC(=O)c3cccnc3)o2)cc1	94	101	-79	x

# Other records follow.
SMILES	Sa growth 42C	Sa growth 42C second temp	HCMV NEC inh	GIV-Gai inh
COc1ccc(NC(=O)C(C)Sc2nc3ncccc3[nH]2)cc1OC (stereo unspecified)	x	x	-7	104
CCC1c2ccc(C)n2CCN1C(=O)Nc1ccccc1C(=O)OC (stereo unspecified)	x	x	-20	108
Oc1[nH]c2ccccc2c1C=NC1CCCC1	110	100	-34	101
C1C2C3C4OC5C3C1C1C2C4C51 (stereo unspecified)	94	93	-29	x
CCc1c(C#N)c(SCC(=O)c2cc(C)n(CCOC)c2C)nc2c1C(=O)CC(C)(C)C2	92	92	-28	100
COCCNc1nnc(SCN2C(=O)c3ccccc3C2=O)s1	112	90	-29	x
CCOC(=O)c1c(C)[nH]c(C(=O)N2CCC(CC(=O)NCc3cccnc3)CC2)c1C	x	x	-14	109
NC(=O)CN1C(C(=O)c2ccccc2)=C(N2CCOCC2)c2ccccc2S1(=O)=O	87	89	-19	97

# Further structures.
SMILES	Sa growth 42C	Sa growth 42C second temp	HCMV NEC inh	GIV-Gai inh
Cc1ccc(-c2csc(/C(C#N)=C(\O)CSc3ncn[nH]3)n2)cc1	109	90	-20	x
COc1ccc(C(=O)C2CCN(CC(=O)NCc3ccc(F)cc3)CC2)cc1	76	91	-3	101
COc1ccc(NC(=O)CSc2nc3ccccc3[nH]2)cc1	102	90	-19	95
CCc1ccc(C2C(C(=O)Nc3ccccc3C)=C(C)Nc3nc(SCc4cccc(OC)c4)nn32)cc1 (stereo unspecified)	123	100	x	104
C1N2CN3CN1CN(C2)C3	89	90	-19&5	x
COc1ccc(C(=O)OCC(=O)N2CC(C)CC(C)C2)cc1 (stereo unspecified)	108	88	-28	x
COc1ccc(N2C(=O)CCS2(=O)=O)cc1S(=O)(=O)Nc1cccc(Br)c1	x	x	-20	104
O=C(Nc1ccc(OC(F)(F)F)cc1)N1CCN(C(c2ccccc2)c2ccccc2)CC1	102	93	-18	101

# (continued)
SMILES	Sa growth 42C	Sa growth 42C second temp	HCMV NEC inh	GIV-Gai inh
Fc1ccc(-c2noc(-c3ccc(NC4CCCCC4)nn3)n2)cc1	x	x	-34	101
CCOc1cc(C2c3c(oc4cc(C)cc(C)c4c3=O)C(=O)N2CCCO)ccc1O (stereo unspecified)	88	90	-12	98
Cc1cc2cc(CNC(=O)c3ccccc3C(F)(F)F)ccc2[nH]1	110	90	x	98
COC(=O)c1cn(CC(N)=O)c2nc(C)ccc2c1=O	114	92	-29	106
Cc1cccc(OCc2cc(=O)n3c(-c4ccccc4)csc3n2)c1C	116	86	-7	113
CC(NC(=O)C1CCCN1C(=O)OCc1ccccc1)c1ccccc1 (stereo unspecified)	97	88	-28	109
O=C1CSC(=O)N1Cc1ccccc1	97	81	-17	106
COc1ccc(Br)cc1CN1CCC(N2CCN(CCO)CC2)CC1	99	87	-19	103

# Other compounds follow:
SMILES	Sa growth 42C	Sa growth 42C second temp	HCMV NEC inh	GIV-Gai inh
CN(C(=O)C(c1ccccc1)c1ccccc1)C1CCS(=O)(=O)C1 (stereo unspecified)	107	94	9	107
CC1(C(=O)NC2CCCCC2)Cn2c(cc3occc32)C(=O)N1Cc1cccnc1 (stereo unspecified)	x	x	-6	98
Cc1ccc(NC(=O)CC2Oc3ccccc3NC2=O)cc1C (stereo unspecified)	101	87	6	101
O=C(O)CC(NC(=O)c1ccccc1)c1ccccc1 (stereo unspecified)	106	96	-18	x

# Four entries from above, as labelled records.
CN(C(=O)C(c1ccccc1)c1ccccc1)C1CCS(=O)(=O)C1 (stereo unspecified)
  Sa growth 42C: 107; Sa growth 42C second temp: 94; HCMV NEC inh: 9; GIV-Gai inh: 107
CC1(C(=O)NC2CCCCC2)Cn2c(cc3occc32)C(=O)N1Cc1cccnc1 (stereo unspecified)
  Sa growth 42C: x; Sa growth 42C second temp: x; HCMV NEC inh: -6; GIV-Gai inh: 98
Cc1ccc(NC(=O)CC2Oc3ccccc3NC2=O)cc1C (stereo unspecified)
  Sa growth 42C: 101; Sa growth 42C second temp: 87; HCMV NEC inh: 6; GIV-Gai inh: 101
O=C(O)CC(NC(=O)c1ccccc1)c1ccccc1 (stereo unspecified)
  Sa growth 42C: 106; Sa growth 42C second temp: 96; HCMV NEC inh: -18; GIV-Gai inh: x

# Bioassay records from PubChem.
